High-throughput results (PubChem)
Anaer choline gr – inhibitors of anaerobic choline-dependent gram-negative bacterial growth | 55,000 compounds, 0.2% hits | AID 1963822 | calls only | Gram-negative bacterium anaerobic choline minimal medium, absorbance growth; hits give low values; many inactives read as strong as hits in the columns shown;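 active means growth z-score on choline under -2 at 7 or 20 h with little or no fall on glycerol, limits in tiers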;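 further: stock transfer was 300 nL into about 50 µL; the organism is E. coli; final concentration not given here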
Anaer choline gr early – further read-out of Anaer choline gr, marked with its call; z-score; measured here: choline growth z-score, timepoint 1;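 score of optical density at 7 h as mean of two plates; lower means less growth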
* = called active by the depositor; i = inactive; & = joins results of further samples.

The line under a structure holds: Anaer choline gr early, Anaer choline gr
O=C(NC1CCCC1)c1ccc(N2C(=O)CCS2(=O)=O)cc1
    -1.2, i
CCN(Cc1ccccc1)Cc1cc(=O)n2nc(C3CC3)sc2n1
    -0.39, i
Cc1ccc(NC(=O)N2CCN(c3cc(=O)n4nc(-c5ccccc5C)sc4n3)CC2)c(Cl)c1
    -0.67, i
COc1cccc(C2CC(=O)Nc3c2cnn3-c2nc3ccccc3s2)c1OC (stereo not given)
    -0.58, i
O=C(Nc1cccc(F)c1)C1CCN(c2nc3ccccc3nc2C(F)(F)F)CC1
    0.87, i
CNCc1ccc(-c2cc(Cl)ccc2Cl)o1
    -2.2, i
O=c1cc(CN(Cc2ccccc2)Cc2ccccc2)nc2sc(C3CC3)nn12
    0.42, i
O=C(c1ccc2ccnc(N3CCN(c4ccc(F)cc4)CC3)c2c1)N1CCN(c2ccccc2)CC1
    0.86, i
Cc1cc(C)n(-c2nc3ccccc3nc2Nc2ccc3c(c2)OCO3)n1
    -0.35, i
CC1=C(C(=O)OCC2CCCCC2)C(c2ccccc2Cl)CC(=O)N1 (stereo not given)
    0.8, i
Cc1cc2oc(C(=O)Nc3cccnc3)cc(=O)c2cc1C
    -0.94, i
Cn1c(=O)n(Cc2ccccc2F)c(=O)c2cnc(-c3ccncc3)nc21
    -0.62, i
Cc1nc(-c2csc(S(=O)(=O)N3CCCC(C(=O)Nc4cc(F)ccc4F)C3)c2)no1 (stereo not given)
    0.88, i
Cc1ccc(-c2ccc(=O)n(CCc3nc(-c4ccc5c(c4)OCO5)no3)n2)cc1C
    1.5, i
CCOc1cc(-c2cccc(Cl)c2)nc2ccc(C(=O)NCc3ccccc3OC)cc12
    1.7, i
C#C[C@]1(O)CC[C@H]2[C@@H]3[C@H](C)CC4=C(CCC(=O)C4)[C@H]3CC[C@@]21C
    -0.3&0.74, i
CC1CCCN(S(=O)(=O)c2cc(-c3nnc(C4CCC4)o3)co2)C1 (stereo not given)
    -1.3, i
O=C(CCc1nc(CSc2n[nH]c(-c3ccc(F)cc3)n2)no1)Nc1nccs1
    0.79, i
Cc1ncc(-c2ccc(S(=O)(=O)N3CCc4ccccc4C3)cc2)o1
    -1.4, i
CC(C)NC(=O)N1CCCC(c2cccc(C(=O)N3CCN(C4CCCCC4)CC3)c2)C1 (stereo not given)
    1.1, i
COc1ccc(-c2csc(Cc3nc(-c4ccccc4Cl)no3)n2)cc1
    0.34, i
O=c1[nH]c2cc3c(cc2c(=O)n1CCCc1nc(-c2cccc(Cl)c2)no1)OCO3
    -0.24, i
COc1cc(C2CC(=O)C3=C(C2)Nc2onc(C)c2C3c2ccc(OC)c(OC)c2)ccc1O (stereo not given)
    -0.02, i
CCN(CC)c1ccc(-n2c3c(cc(C(=O)NC(C)=O)c2=O)C(=O)CC(C)(C)C3)cc1
    -0.38, i
Cc1ccc(S(=O)(=O)c2c(O)c3ccc(C(=O)NCc4ccccc4)cc3[nH]c2=O)cc1
    0.19, i
CCOC(=O)c1nc(Nc2ccc(F)cc2)c2c(C)c(C)n(-c3ccc(C)cc3)c2n1
    -0.75, i
C[C@@H]1CCC[C@H](C)N1NC(=O)c1ccc(Cl)c(S(N)(=O)=O)c1
    0.66&0.35, i
Cc1nnsc1C(=O)Nc1sc2c(c1C(=O)NCC1CCCO1)CCCC2 (stereo not given)
    0.97, i
CC(=O)N1c2ccc(S(=O)(=O)N3CCOCC3)cc2CC1C(=O)N1CCc2ccccc2C1 (stereo not given)
    0.5, i
Cc1cccc2cc3c(nc12)N(S(=O)(=O)c1ccc(OC2CCCC2)cc1)CC3
    1.2, i
CC(C)NC(=O)CN1CCN(c2ccc(C(=O)O)cc2NC(=O)c2ccccc2Cl)CC1
    -0.11, i
CN(C)CCC1CCCCN1C(=O)C1CCC1 (stereo not given)
    -0.3, i
CC(C)CN(Cc1ccc(F)cc1)Cc1cc(=O)n2nc(C(C)C)sc2n1
    -0.73, i
C=CCSc1ncc(Cl)c(C(=O)Nc2sc3c(c2C(=O)NCC2CCCO2)CCC3)n1 (stereo not given)
    -0.68, i
Cc1ncc(-c2ccc(S(=O)(=O)NCc3cccs3)s2)o1
    -0.71, i
O=C(NCc1ccncc1)c1ccc2c(c1)CCN2S(=O)(=O)c1ccccc1
    0.06, i
Cc1nc2n(n1)C(C(=O)Nc1cccc(Cl)c1)CC(=O)N2 (stereo not given)
    -2.4, i
CCOC(=O)c1cnn(CCOC(=O)C2CCCCC2)c1NC(=O)C1CCCCC1
    0.02, i
COc1ccc(NC(=O)c2nnc(C3CCN(C(=O)C4CCC4)CC3)s2)cc1
    -0.6, i
c1ccc(-c2csc3ncnc(NC4CCCC4)c23)cc1
    1.4, i
Cc1sc(-c2noc(C3CC3)n2)cc1S(=O)(=O)N1CC=C(c2ccccc2)CC1
    1.4, i
Cc1nc2[nH]nc(C)n2c(=O)c1CC(=O)O
    -0.01, i
CCc1ccc2oc(C(=O)NCC(c3ccc(C(C)(C)C)cc3)N(C)C)cc(=O)c2c1 (stereo not given)
    -0.15, i
COc1ccc(C(=O)Nc2nc(-c3ccccn3)cs2)c(OC)c1
    0.38, i
CCN(CC)S(=O)(=O)c1ccc2c(c1)nc(C(F)(F)F)n2CCC(=O)Nc1ccccc1C
    -0.29, i
COc1ccccc1C1CC(=O)NC2=C1C(=O)CCC2 (stereo not given)
    0.02, i
Cc1nc2c3ccccc3n3c(CCCC(=O)N4CCN(c5ccccc5)CC4)nnc3n2n1
    -1.1, i
COc1ccc(NC(=O)COc2ccc(Cl)cc2)cc1CN1CCn2c(nc3ccccc32)C1
    1.1, i
CCOc1ccc(NC(=O)N2CC(=O)N(CC(=O)Nc3cc(Cl)ccc3C)c3ccccc32)cc1
    0.74, i
COc1ccccc1OCCCn1c(C(C)N2CCCCC2)nc2ccccc21 (stereo not given)
    0.51, i
Cc1cccc(C(=O)N2CC(=O)Nc3ccc(Br)cc3C2c2ccccc2)c1 (stereo not given)
    0.54, i
O=C(NCc1ccc(Cl)cc1)C(Cc1ccccc1)NS(=O)(=O)c1cccc2cccnc12 (stereo not given)
    0.18, i
Cc1cccc(CNC(=O)CSc2nc3ccccc3nc2C)c1
    -0.03, i
CC(C)CCNC(=O)C1(C)Cn2c(cc3ccccc32)C(=O)N1CCC1=CCCCC1 (stereo not given)
    0.49, i
O=C(c1ccccc1Br)N1CCN(Cc2cc(=O)n3nc(-c4ccccc4)sc3n2)CC1
    -0.11, i
COc1ccc2c(c1)c(C(=O)CNc1nc(C)cs1)c(C)n2C
    0.5, i
O=C(CN1C(=O)c2ccccc2C1=O)NCc1noc(-c2ccccc2)n1
    0.31, i
COCCNC(=O)c1ccc2c(=O)n(-c3ccc(F)cc3)c(SCC(=O)c3c[nH]c4ccccc34)nc2c1
    -0.45, i
CCn1c(=O)c2c(C(=O)N3CCOCC3)cc(=O)n(CC)c2n(C)c1=O
    0.66, i
Cc1nc(-c2csc(S(=O)(=O)NC3CCCCCC3)c2)sc1C
    1.6, i

The final four records of the part above are carried over, then new ones follow.
The line under a structure holds: Anaer choline gr early, Anaer choline gr
O=C(CN1C(=O)c2ccccc2C1=O)NCc1noc(-c2ccccc2)n1
    0.31, i
COCCNC(=O)c1ccc2c(=O)n(-c3ccc(F)cc3)c(SCC(=O)c3c[nH]c4ccccc34)nc2c1
    -0.45, i
CCn1c(=O)c2c(C(=O)N3CCOCC3)cc(=O)n(CC)c2n(C)c1=O
    0.66, i
Cc1nc(-c2csc(S(=O)(=O)NC3CCCCCC3)c2)sc1C
    1.6, i
Cc1ccc2nc(SCc3nc4scc(C)n4c3Br)[nH]c2c1
    0.17, i
Cc1cc(N2CCOCC2)n2nc(C)c(-c3ccc(F)cc3)c2n1
    0.2, i
CCOC(=O)CSc1nnc2c3ccccc3nc(-c3ccc(C)cc3)n12
    0.19, i
CN1C(=O)c2cc(NC(=O)c3cccc(N(C)C)c3)ccc2N2CCN=C12
    -1.1, i
COc1cc(C2CC(=O)Nc3nc(N)[nH]c(=O)c32)ccc1OCc1cccc(Cl)c1 (stereo not given)
    -1.3, i
CCS(=O)(=O)N1CCC(n2cnc3ccc(F)cc3c2=O)CC1
    -1.6, i
COc1cc2c(c(OC)c1OC)-c1ccc(OC)c(=O)cc1[C@@H](NC(C)=O)CC2
    0.32&-0.18, i
Cc1c(S(=O)(=O)N2CCC(C)CC2)cc(-c2nc(-c3ccc(F)cc3)cs2)n1C
    0.99, i
c1ccc(-c2nc3c4c5c(sc4ncn3n2)CCCCC5)cc1
    0.4, i
O=c1c2cc3c(cc2nc(SCc2nc(-c4cccc(F)c4)no2)n1CC1CCCO1)OCO3 (stereo not given)
    0.35, i
O=C(c1ccc2c(c1)OCO2)N1CCCC1c1ccc(Cl)cc1 (stereo not given)
    -1.1, i
Cc1csc(-c2cc(S(=O)(=O)NC(C)C)c(C)n2C)n1
    -0.44, i
Cc1ccc(-c2noc(Cc3nc(-c4ccc5c(c4)OCO5)cs3)n2)cc1
    0.68, i
Cc1ccc(-c2nc(N)n(C(=O)C(C)(C)C)n2)cc1
    1.4, i
COc1ccc(NC(=O)c2nnc(C3CCN(S(=O)(=O)c4ccc(Cl)cc4)CC3)s2)cc1
    -0.23, i
CCc1ccc(NC(=O)Nc2cc3c(cc2Oc2ccccc2)n(C)c(=O)n3C)cc1
    -0.11, i
CC1CCC(NC(=O)C2CCCN(C(=O)c3cc(-c4ccccn4)n[nH]3)C2)CC1 (stereo not given)
    -0.9, i
CCOC(=O)c1c(C)[nH]c(C)c1S(=O)(=O)N1CCCC(C(=O)Nc2ccc(Cl)cc2)C1 (stereo not given)
    -1.1, i
CC(C)NC(=O)CSc1nccn2nc(-c3ccc(Cl)cc3)cc12
    -0.1, i
COc1ccc(N2CCN(C(=O)CN(C)S(=O)(=O)c3ccc4c(c3)nnn4C(C)C)CC2)cc1
    -0.31, i
N#CC1=CN(c2ccc(Br)cc2)c2cc(F)ccc2S1(=O)=O
    0.34, i
O=C(Cn1c(SCc2ccc(F)cc2)nc2cccnc21)Nc1ccc(Cl)cc1F
    0.11, i
CCN(c1cccc(C)c1)S(=O)(=O)c1cc(-c2nc(C)c(C)s2)sc1C
    0.77, i
Cc1onc(-c2ccc(Br)cc2)c1C(=O)NCCCOC(C)C
    -0.32, i
Cc1cccc(C(=O)N2CCN(c3nc4cccnc4o3)CC2)c1C
    -0.52, i
CC(=O)Nc1c(-c2ccccc2)c(C)nn1-c1ccc(C(=O)N2CCc3ccccc3C2)cc1
    0.56, i
COC(=O)c1ccccc1NC(=O)Cn1c(C)cc(C)c(-c2nc(-c3ccc(C)cc3)no2)c1=O
    2, i
CCCc1cc(C2CCCN2Cc2ccc(C)c(C)c2)no1 (stereo not given)
    -0.04, i
CCN1CCC2(CC1)OC(=O)C(C)=C2C(=O)Nc1ccc2c(c1)OCO2
    1.1, i
CCSc1nn(CC(=O)Nc2cc(C)c(Cl)cc2OC)c(N)c1S(=O)(=O)c1ccc(OC)cc1
    0.12, i
Clc1cccc(-c2ccc(CNCc3ccco3)o2)c1
    -0.9, i
CCCS(=O)(=O)N1CCCC1c1cc(C)on1 (stereo not given)
    0.07, i
CC(C)(C)c1csc(-c2csc(S(=O)(=O)NCc3ccc(F)cc3Cl)c2)n1
    0.55, i
C[C@@H](C1=C(CCN(C)C)Cc2ccccc21)c1ccccn1
    -0.61, i
CN(C)S(=O)(=O)c1ccc(-c2noc(C(=O)NC3CC3)n2)cc1
    -1.1, i
O=C(CCC(=O)N1CCc2cc(S(=O)(=O)NCCC3=CCCCC3)ccc21)N1CCCC1
    0.45, i
COc1ccc(C(NC(=O)C(C)C)c2ccc3cccnc3c2O)cc1 (stereo not given)
    1.2, i
Cn1ccc2cc(S(=O)(=O)N3CCN(C(=O)Nc4ccc5c(c4)OCCO5)CC3)ccc21
    -0.33, i
CCCCCn1c(=O)[nH]c2cc(C(=O)N3CCN(c4ccccc4)CC3)ccc2c1=O
    -1.5, i
O=c1[nH]c2cc(Br)c(S(=O)(=O)NCc3ccc4c(c3)OCO4)cc2[nH]1
    0.98, i
Cc1noc2ncn(CC(=O)N3CCC(C)CC3)c(=O)c12
    -0.58, i
O=C(c1cccc(-n2cnc3cccnc32)c1)N1CCN(c2ccccc2)CC1
    -0.64, i
COc1cc(=O)n(-c2ccc(C)cc2)nc1C(=O)Nc1ccc(Br)cc1F
    2.4, i
CC1CCC(NC(=O)C2c3cccn3CC(=O)N2CCc2ccc(Cl)cc2)CC1 (stereo not given)
    -0.29, i
Cc1ccc2c(=O)cc(C(=O)N3CCN(C)CC3)oc2c1C
    0.1, i
O=C(c1cnc2sccn2c1=O)N1CCN(c2cccc(Cl)c2)CC1
    -1.1, i
CCc1cc2c(cc3n2CC(C)(C(=O)NC2CCCCC2)N(CCCOC(C)C)C3=O)s1 (stereo not given)
    -2.1, i
O=C(NCCc1c[nH]c2ccccc12)c1noc2c1CSc1ccccc1-2
    3.7, i
CCc1ccc2ncc(S(=O)(=O)c3ccccc3)c(N(CC)CC)c2c1
    1.4, i
COc1ccc(-c2noc(N3CCC(C(=O)NC4CC4)CC3)n2)cc1OC
    -1.5, i
CCC(C)NC(=O)Cn1c(=O)ccc2cc(S(=O)(=O)N3CCCC3)ccc21 (stereo not given)
    0.2, i

Whole records, quoted from the list. Order of values: Anaer choline gr early, Anaer choline gr
CCCS(=O)(=O)N1CCCC1c1cc(C)on1 (stereo not given) in the list: 0.07, i
COc1ccc(-c2noc(N3CCC(C(=O)NC4CC4)CC3)n2)cc1OC in the list: -1.5, i

These rows are one share of the data. The share of hits here may be higher or lower than overall.
